Mtb growth = Confirmatory growth inhibition assay against Mycobacterium tuberculosis H37Rv, potency (AID 1949); most inactive calls were filed without a number and no value below 0 was filed; one-dose inhibition, % at 10 µg/mL; IC50 in µg/mL for titrated hits; 100,000 tested, 1.6% active;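 active = confirmed in a dose series; inconclusive = about 50% or more but not retested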;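 also: bacteria grown 7 days with compound before Alamar blue readout; 0% = untreated bacteria and 100% = reference antibiotic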
* marks the source's active call; other numbers are inactive results. This is a subset; rates above refer to the full screens.

For Cc1nn(C(C)CC(=O)O)c(C)c1Br (stereo not drawn) the results were Mtb growth inactive.
`COc1ccc(-c2csc(NCCc3ccc(OC)c(OC)c3)n2)cc1` gave Mtb growth 3.5%.
Screening COc1ccc(Cl)cc1CNc1ccc(N2CCOCC2)c(C(=O)O)c1 returned Mtb growth inactive.
CCCOc1ccc(-c2nc(C#N)c(NC)o2)cc1 was read as Mtb growth inactive.
`O=C(Cn1nnc(-c2ccc(OCc3cccc(C(F)(F)F)c3)cc2)n1)N1CCOCC1` gave Mtb growth inactive.
Screening CCOc1ccc(OCCN(C)Cc2ccccc2)cc1 returned Mtb growth 1.7%.
`O=C(Nc1nc2c(Cl)c(Cl)ccc2s1)c1ccc(-c2ccccc2[N+](=O)[O-])o1` gave Mtb growth 2.0%.
Screening CSc1ccccc1NC(=O)c1ccc(CN2CCOCC2)cc1 returned Mtb growth inactive.
CCOC(=O)Nc1ccc(NC(=O)c2c(OC)cccc2OC)cc1 was read as Mtb growth inactive.
Screening Cc1cccc(NC(=O)C(=O)NC2CCCCCC2)c1 returned Mtb growth inactive.
Screening COc1cc(C(=S)N2CC(C)OC(C)C2)ccc1OCc1ccccc1 (stereo not drawn) returned Mtb growth inactive.
Screening O=C(Nc1cccc(C(=O)N2CCCCCC2)c1)c1ccco1 returned Mtb growth 0.8%.
Screening O=C(Nc1ccccc1C(F)(F)F)c1ccc(Cl)s1 returned Mtb growth inactive.
Screening C/C=C/c1ccc(OCCCCN(C)Cc2ccccc2)c(OC)c1 returned Mtb growth inactive.
`CC(=O)Nc1ccc(C(=O)Nc2ccc3c(c2)OCCO3)cc1` gave Mtb growth inactive.
COc1ccc(Cl)cc1C(=O)NCc1ccc(F)cc1 was read as Mtb growth inactive.
For O=C(Nc1ccc(Cl)c(Cl)c1)N1N=CCC1c1ccccc1 (stereo not drawn) the results were Mtb growth 2.2%.
For CC(C)(C)CC(=O)NCc1cccs1 the results were Mtb growth inactive.
Cc1ccc(N(CC(=O)Nc2ccccc2-c2ccccc2)S(=O)(=O)c2ccccc2)c(C)c1 was read as Mtb growth 16.4%.
`CCn1c(CNC(=O)c2cccc([N+](=O)[O-])c2)nnc1SCC(=O)Nc1cc(C)ccc1OC` gave Mtb growth inactive.

An excerpt from above in order of formula weight, low to high:
CCCOc1ccc(-c2nc(C#N)c(NC)o2)cc1 was read as Mtb growth inactive.
CCOC(=O)Nc1ccc(NC(=O)c2c(OC)cccc2OC)cc1 was read as Mtb growth inactive.
Screening COc1cc(C(=S)N2CC(C)OC(C)C2)ccc1OCc1ccccc1 (stereo not drawn) returned Mtb growth inactive.
Screening COc1ccc(Cl)cc1CNc1ccc(N2CCOCC2)c(C(=O)O)c1 returned Mtb growth inactive.
`CCn1c(CNC(=O)c2cccc([N+](=O)[O-])c2)nnc1SCC(=O)Nc1cc(C)ccc1OC` gave Mtb growth inactive.

Next section
For Cc1cc(OCCN2CCN(C)CC2)ccc1C(C)C the results were Mtb growth inactive.
Screening COc1ccc(NC(=O)Nc2ccc(OC(F)F)cc2C)cc1 returned Mtb growth inactive.
O=C(NC1CCCC1)c1cccc(COc2ccccc2Br)c1 was read as Mtb growth 1.5%.
For Cc1cc(C(=O)Nc2nnc(-c3ccncc3)s2)no1 the results were Mtb growth 20.6%.
CC(=O)Nc1nnc(-c2c(F)cccc2F)s1 was read as Mtb growth inactive.
CC(C)c1ccccc1NC(=S)NC1CC(C)(C)NC(C)(C)C1 was read as Mtb growth inactive.
`CC1=C(C(N)=O)C(c2cccc(Cl)c2)n2ncnc2N1` (stereo not drawn) gave Mtb growth inactive.
`COc1ccc(S(=O)(=O)N2CCN(C(=O)c3cccc(Cl)c3)CC2)cc1` gave Mtb growth inactive.
Screening O=C(Oc1ccc(Cl)cc1N1C(=O)CCC1=O)c1ccco1 returned Mtb growth inactive.
For CC(C)Oc1ccc(Cc2c(O)n(-c3ccccc3)c(=S)[nH]c2=O)cc1 the results were Mtb growth inactive.
`Cc1nn(Cc2cccc3ccccc23)c(C)c1NC(=S)NC1CC1` gave Mtb growth inactive.
Screening CC(Oc1cccc(Cl)c1)C(=O)NCc1ccc2c(c1)OCO2 (stereo not drawn) returned Mtb growth inactive.
COc1cccc(-c2nc(-c3cccs3)c(-c3cccs3)[nH]2)c1OC was read as Mtb growth 4.0%.
CCOC(=O)c1ccc(Nc2cc(C)nc(-c3ccccc3O)n2)cc1 was read as Mtb growth 1.6%.
`COc1ccc(C(=O)N2CCC(C(=O)NCc3ccncc3)CC2)cc1` gave Mtb growth 1.4%.
For COc1ccc(NC(=O)CCOc2cccc(C)c2)c(OC)c1 the results were Mtb growth inactive.
For COc1ccc2c(c1)sc1nc(-c3cc4cccc(OC)c4oc3=O)cn12 the results were Mtb growth inactive.
`FC(F)C(F)(F)c1cc(-c2ccc(Cl)cc2)n[nH]1` gave Mtb growth 2.4%.
For CN1CCN(C(=O)Nc2ccc(Cl)cc2)CC1 the results were Mtb growth inactive.
`NC(=O)c1ccccc1NC(=S)NC(=O)c1ccc(-c2cccc(Cl)c2)o1` gave Mtb growth 5.2%.
O=C(Nc1ccc2oc(-c3ccncc3)nc2c1)c1sc2ccccc2c1Cl was read as Mtb growth inactive.
`COc1ccc(NC(=O)CN(c2cccc([N+](=O)[O-])c2)S(C)(=O)=O)c(OC)c1` gave Mtb growth inactive.
For O=C(Nc1c(Cl)cc(Cl)cc1Cl)c1ccc(F)cc1 the results were Mtb growth inactive.
Cc1cc(=O)oc2cc(OCC(=O)Nc3cc(C(F)(F)F)ccc3Cl)ccc12 was read as Mtb growth 1.7%.
O=C(CSc1ccc([N+](=O)[O-])cn1)N1CCc2ccccc21 was read as Mtb growth 8.8%.
Screening COc1ccc(-c2csc(NC(=O)CSc3nc(C)cc(C)n3)n2)cc1 returned Mtb growth inactive.
For O=C(CCCc1nc(-c2ccccc2Cl)no1)Nc1ccccc1Cl the results were Mtb growth inactive.
`Cc1cc(C)cc(C(=O)NC(=S)Nc2cc(C(F)(F)F)ccc2N2CCCC2)c1` gave Mtb growth 19.6%.
Screening CCn1c(=O)c([N+](=O)[O-])c(NCCc2ccccc2)c2ccccc21 returned Mtb growth inactive.
For Cc1ccc(NS(=O)(=O)c2cccc3c2C(=O)c2ccccc2C3=O)c(C)c1 the results were Mtb growth inactive.
Screening COc1ccc(OCc2c(F)cccc2Cl)cc1 returned Mtb growth inactive.
For Cc1nnc(Sc2nc3c(c(=O)[nH]c(=O)n3C)n2Cc2ccccc2)s1 the results were Mtb growth inactive.
Screening CC(=O)Nc1ccc2nc(SCc3c(C)cc(C)c(C(C)=O)c3C)sc2c1 returned Mtb growth 4.7%.
`Cc1ccc(C(C)C)c(OCCSc2nc(C)cc(=O)[nH]2)c1` gave Mtb growth inactive.
`CCN(C(=O)c1ccccc1)c1c(C)n(C)n(-c2ccccc2)c1=O` gave Mtb growth inactive.
Screening CCOc1ccc(Br)cc1CNc1ccc(F)cc1 returned Mtb growth inactive.
CCOc1ccc(-n2c(SCC(=O)N3CCOCC3)nnc2-c2ccncc2)cc1 was read as Mtb growth inactive.
For CCCCN(CC)Cc1c(C)[nH]c2c(Cl)cccc2c1=O the results were Mtb growth inactive.
Screening CCCCc1ccc(NC(=O)C(=O)NCC2CCCN2CC)cc1 (stereo not drawn) returned Mtb growth inactive.
CCOC(=O)c1c(C)n(-c2ccc(OC)cc2)c2ccc(OC(C)=O)cc12 was read as Mtb growth inactive.

Of the compounds above, these contain a COOH group:
For Cc1nn(C(C)CC(=O)O)c(C)c1Br (stereo not drawn) the results were Mtb growth inactive.
Screening COc1ccc(Cl)cc1CNc1ccc(N2CCOCC2)c(C(=O)O)c1 returned Mtb growth inactive.

Back to the main list; the 7 compounds before the break are reprinted first.
`Cc1ccc(C(C)C)c(OCCSc2nc(C)cc(=O)[nH]2)c1` gave Mtb growth inactive.
`CCN(C(=O)c1ccccc1)c1c(C)n(C)n(-c2ccccc2)c1=O` gave Mtb growth inactive.
Screening CCOc1ccc(Br)cc1CNc1ccc(F)cc1 returned Mtb growth inactive.
CCOc1ccc(-n2c(SCC(=O)N3CCOCC3)nnc2-c2ccncc2)cc1 was read as Mtb growth inactive.
For CCCCN(CC)Cc1c(C)[nH]c2c(Cl)cccc2c1=O the results were Mtb growth inactive.
Screening CCCCc1ccc(NC(=O)C(=O)NCC2CCCN2CC)cc1 (stereo not drawn) returned Mtb growth inactive.
CCOC(=O)c1c(C)n(-c2ccc(OC)cc2)c2ccc(OC(C)=O)cc12 was read as Mtb growth inactive.
`CCOC(=O)N1CCN(S(=O)(=O)c2ccc(S(N)(=O)=O)cc2)CC1` gave Mtb growth inactive.
For N#C/C(=C\c1ccc(O)c(O)c1)c1nc(-c2ccc3c(c2)OCO3)cs1 the results were Mtb growth inactive.
Cc1nc(N2C(=O)c3oc4ccccc4c(=O)c3C2c2cccc(Br)c2)sc1C (stereo not drawn) was read as Mtb growth inactive.
For Cc1ccc(NC(=O)c2sc3cccc(Cl)c3c2Cl)cc1Cl the results were Mtb growth inactive.
`O=C(COC(=O)c1ccncc1)c1ccc(Cl)c(Cl)c1` gave Mtb growth inactive.
Screening COc1ccc(-c2cc(-c3c(O)ccc4ccccc34)[nH]n2)cc1OC returned Mtb growth inconclusive.
For NC(=O)C1CCN(c2nc(-c3ccc(Cl)cc3)cs2)CC1 the results were Mtb growth inactive.
Screening COc1nc(Nc2ccc(OC)c(Cl)c2)nc(OC)n1 returned Mtb growth 0.6%.
`O=C(c1sc2cc(Cl)ccc2c1Cl)N1CCN(C(=S)NCC2CCCO2)CC1` (stereo not drawn) gave Mtb growth inactive.
Screening COc1ccc(OCC(=O)Nc2ccc(NC(=O)COc3ccc(OC)cc3)cc2)cc1 returned Mtb growth 10.2%.
For O=C(CSc1nnc(COc2ccc3c(c2)CCCC3)o1)Nc1ccc(Cl)cc1Cl the results were Mtb growth 21.9%.
Screening O=C(CSCc1ccc([N+](=O)[O-])cc1)Nc1ccc(S(=O)(=O)N2CCCCCC2)cc1 returned Mtb growth inactive.
Screening S=C(Nc1cccnc1)NC1CCCc2ccccc21 (stereo not drawn) returned Mtb growth inactive.
`COc1cc(CNc2ccc(NC(C)=O)cc2)ccc1OCc1ccc(F)cc1Cl` gave Mtb growth inactive.
Screening CCc1cccc2c(C=O)cn(CC(=O)N3CCCCCC3)c12 returned Mtb growth inactive.
Cc1cc(C)nc(/N=C(/N)Nc2ccc3c(c2)OCCO3)n1 was read as Mtb growth inactive.
For Cc1nc2cc(NC(=O)NCc3ccco3)ccc2o1 the results were Mtb growth inactive.
Screening CCOC(=O)c1ccc(NC(=O)/C(=C\c2ccc(OC)cc2)NC(=O)c2ccccc2OC)cc1 returned Mtb growth inactive.
Screening COc1ccc(S(=O)(=O)N2CCC(C(=O)Nc3ccc(I)cc3)CC2)cc1 returned Mtb growth inactive.
For CCc1cc(C(=O)Cc2cnn(-c3ccccc3)c2)c(O)cc1O the results were Mtb growth 0.3%.
Screening O=C(Nc1c(F)cccc1F)c1ccccc1Cl returned Mtb growth inactive.
Screening CCOc1ccccc1NC(=O)CN(c1ccccc1Cl)S(=O)(=O)c1ccc(C)cc1 returned Mtb growth inactive.
Screening Cc1ccc2oc(-c3ccc(NC(=S)NC(=O)c4cccs4)cc3)nc2c1 returned Mtb growth inactive.
`COc1cc(OC)cc(C(=O)Nc2ccccc2C(=O)N2CCOCC2)c1` gave Mtb growth inactive.
Screening O=C(C1CCCO1)N1CCN(C(=S)Nc2cccc(C(F)(F)F)c2)CC1 (stereo not drawn) returned Mtb growth 5.8%.
`CC(=O)c1ccc(NC(=O)C2(c3ccccc3)CCOCC2)cc1` gave Mtb growth inactive.
`CS(=O)(=O)N1CCC(C(=O)NCC2CCCO2)CC1` (stereo not drawn) gave Mtb growth inactive.
For O=C1c2ccccc2C2C3CC=CC3c3c(ccc4ccccc34)N12 (stereo not drawn) the results were Mtb growth inactive.
`COc1ccc(N2C(=O)c3cccc4cc(Br)cc(c34)C2=O)cc1` gave Mtb growth inactive.
`CCCN(CCC)S(=O)(=O)c1ccc(C(=O)N2CCCc3ccccc32)cc1` gave Mtb growth 1.8%.
CCOC(=O)C1=C(C)OC(N)=C(C#N)C12C(=O)N1c3c(cc(OC)cc32)C(C)=CC1(C)C (stereo not drawn) was read as Mtb growth inactive.
C=CCn1c(SCC(=O)N2CCCCC2)nc(O)cc1=O was read as Mtb growth inactive.
`O=C(NCC1(c2ccc3c(c2)OCCO3)CCCC1)c1cccc([N+](=O)[O-])c1` gave Mtb growth inactive.
For O=C(O)C1CCCCN1S(=O)(=O)c1ccc(Br)cc1 (stereo not drawn) the results were Mtb growth inactive.
`CCOC(=O)CSc1nc2c(c(=O)n1-c1ccccc1OC)C1(CCCC1)Cc1ccccc1-2` gave Mtb growth inactive.
Screening COc1ccc(C)cc1S(=O)(=O)N(CC(=O)N1CCc2ccccc2C1)c1ccccc1 returned Mtb growth inactive.
`COc1ccc(NC(=O)c2ccco2)c(NC(=O)c2ccc(I)cc2)c1` gave Mtb growth inactive.
CC1Cn2c(nnc2C23CC4CC(CC(C4)C2)C3)S1 (stereo not drawn) was read as Mtb growth inactive.
O=C(CN(c1ccccc1)S(=O)(=O)c1ccccc1[N+](=O)[O-])Nc1ccc(F)c(Cl)c1 was read as Mtb growth inactive.
For CCOC(=O)CSC1=C(C#N)C(c2ccccc2Cl)C(C(=O)OCc2ccccc2)=C(C)N1 (stereo not drawn) the results were Mtb growth inactive.
Screening CC1CCCCC1NC(=O)CSc1n[nH]c(-c2ccc(Cl)cc2)n1 (stereo not drawn) returned Mtb growth 0.2%.
`O=C(CSc1nnnn1-c1cccc2ccccc12)Nc1ccccc1F` gave Mtb growth inactive.
Screening Cc1cccc(C)c1OCCNC(=O)c1cc2ccccc2o1 returned Mtb growth inactive.
Screening CCCCNc1nc(=S)n(-c2ccccc2)c(C)c1C(C)=O returned Mtb growth inactive.
`Cc1ccc(NC(=O)Nc2ccc3c(c2)nnn3C)cc1C` gave Mtb growth inactive.

Screening data deposited in PubChem BioAssay by Southern Research Institute.
